From PubChem BioAssay
NPYLR7 ag = mosquito NPYLR7 agonism; HEK293T NPYLR7/Galpha15, GCaMP6s calcium fluorescence; activation, % at 10 µM; actives 0.15% (n = 270,000); in the data active = activation above about 40%;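 also: 0% = vehicle and 100% = reference agonist at the receptor; some compounds past the cut are filed as inactive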
NPYLR7 ag max-min = also measured in NPYLR7 ag; calls as there; activation, %; measured here: Max-Min RFU normalised activation; some inactives read as strong as hits;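 span of the calcium signal over five minutes; 0% = vehicle and 100% = native peptide agonist; compound fluorescence can raise it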
Numbers without * were called inactive; & = joins results of further samples. Only part of the results is shown. The share of hits here may be higher or lower than overall.

Sample of the layout:
SMILES | NPYLR7 ag | NPYLR7 ag max-min
CC(N)c1csc(Nc2ncccn2)n1 (configuration not stated) | -1 | -2
CC1CCCCC1NC(=O)COc1cccc(-c2nnco2)c1 (configuration not stated) | 1 | 0
Cc1cc(C(=O)NCC2CCCN(Cc3ccc(Sc4nncn4C)o3)C2)no1 (configuration not stated) | -5 | -6
Cc1c(C(=O)NCc2ccc3c(c2)OCCO3)sc(=O)n1Cc1ccc(C(=O)N(C)C)cc1 | 14 | 11
C=CCN1CC(c2nc3ccccc3n2Cc2ccc(Cl)c(Cl)c2)CC1=O (configuration not stated) | 3 | 5
CCC(C)C(NC(=O)c1ccc(F)cc1)C(=O)Nc1nnc(-c2ccc(Br)cc2)s1 (configuration not stated) | -4 | 2
CSc1nc(-c2ccccc2)nc(NC(=O)Cc2ccccc2)c1C(C)=O | -1 | -1
Cc1cc(C)nc(SCC(=O)OCC(=O)Nc2ccc(Cl)cc2[N+](=O)[O-])n1 | -9 | -12
CNc1nnc(Cc2csc(N)n2)s1 | 1 | -6
CCCN1CCC(N(C)Cc2ccccc2C#N)CC1 | 6 | 3
Cc1cc(C(=O)N=c2sc3cc4c(cc3n2C)OCO4)on1 | 8 | 11
CCCOCCCNC(=O)c1ccc(-c2cc(-c3cccc(C(F)(F)F)c3)n[nH]2)cc1 | 11 | 12
CCOC(=O)N1CCN(C(=O)c2cc(-c3ccc(Cl)cc3)n(-c3ccc(C)cc3)c2C)CC1 | 4 | 14
Cc1cc(Cl)cc2c3c([nH]c12)CCC(NC(=O)C1CC=CCC1)C3 (configuration not stated) | 31 | 21
CCOC(=O)c1nc2ccccc2nc1N1CCCN(C(=O)Cc2ccc(F)cc2)CC1 | 4 | 2
CCCOc1ccc(C=c2sc3n(c2=O)C(c2cccs2)C(C(=O)OCCOC)=C(C)N=3)cc1 (configuration not stated) | -3 | -1
CCOC(=O)c1cc(-c2cccc(NC(=O)c3cccnc3SCC)c2)n(-c2cccc(F)c2)n1 | 22 | 7
Cc1ccc(S(=O)(=O)N2CCN(C(=O)N3CCOCC3)C2C(C)C)cc1 (configuration not stated) | -7 | -7
NC(=O)c1ccc(C(=O)NNc2c(Cl)cc(Cl)cc2Cl)s1 | 9 | 6

Main list, from the start:
SMILES | NPYLR7 ag | NPYLR7 ag max-min
CC(N)c1csc(Nc2ncccn2)n1 (configuration not stated) | -1 | -2
CC1CCCCC1NC(=O)COc1cccc(-c2nnco2)c1 (configuration not stated) | 1 | 0
Cc1cc(C(=O)NCC2CCCN(Cc3ccc(Sc4nncn4C)o3)C2)no1 (configuration not stated) | -5 | -6
Cc1c(C(=O)NCc2ccc3c(c2)OCCO3)sc(=O)n1Cc1ccc(C(=O)N(C)C)cc1 | 14 | 11
C=CCN1CC(c2nc3ccccc3n2Cc2ccc(Cl)c(Cl)c2)CC1=O (configuration not stated) | 3 | 5
CCC(C)C(NC(=O)c1ccc(F)cc1)C(=O)Nc1nnc(-c2ccc(Br)cc2)s1 (configuration not stated) | -4 | 2
CSc1nc(-c2ccccc2)nc(NC(=O)Cc2ccccc2)c1C(C)=O | -1 | -1
Cc1cc(C)nc(SCC(=O)OCC(=O)Nc2ccc(Cl)cc2[N+](=O)[O-])n1 | -9 | -12
CNc1nnc(Cc2csc(N)n2)s1 | 1 | -6
CCCN1CCC(N(C)Cc2ccccc2C#N)CC1 | 6 | 3
Cc1cc(C(=O)N=c2sc3cc4c(cc3n2C)OCO4)on1 | 8 | 11
CCCOCCCNC(=O)c1ccc(-c2cc(-c3cccc(C(F)(F)F)c3)n[nH]2)cc1 | 11 | 12
CCOC(=O)N1CCN(C(=O)c2cc(-c3ccc(Cl)cc3)n(-c3ccc(C)cc3)c2C)CC1 | 4 | 14
Cc1cc(Cl)cc2c3c([nH]c12)CCC(NC(=O)C1CC=CCC1)C3 (configuration not stated) | 31 | 21
CCOC(=O)c1nc2ccccc2nc1N1CCCN(C(=O)Cc2ccc(F)cc2)CC1 | 4 | 2
CCCOc1ccc(C=c2sc3n(c2=O)C(c2cccs2)C(C(=O)OCCOC)=C(C)N=3)cc1 (configuration not stated) | -3 | -1
CCOC(=O)c1cc(-c2cccc(NC(=O)c3cccnc3SCC)c2)n(-c2cccc(F)c2)n1 | 22 | 7
Cc1ccc(S(=O)(=O)N2CCN(C(=O)N3CCOCC3)C2C(C)C)cc1 (configuration not stated) | -7 | -7
NC(=O)c1ccc(C(=O)NNc2c(Cl)cc(Cl)cc2Cl)s1 | 9 | 6
CC(C)(C)c1cc(=O)n2c(nc3ccccc32)[nH]1 | 4 | 5
COc1cccc(Cn2c(=O)c(C(=O)NCC3CCCO3)nn(-c3ccc(Cl)cc3)c2=O)c1 (configuration not stated) | 11 | 7
COc1ccc(CCN(C)C2CCCN(Cc3ccoc3)C2)cc1OC (configuration not stated) | -1 | 0
O=S(=O)(c1ccc2c(c1)CCCN2)N1CCCCC1 | 0 | 7
CC(C)CNC(=O)c1c(N)n(/N=C\c2ccc(O)c(O)c2)c2nc3ccccc3nc12 | 8 | -2
Oc1cc(-c2cccc(Cl)c2)cc2c1OCCN(c1ncnc3nc[nH]c13)C2 | 30 | 8
CCOC(=NCC(C)C)NC(=O)c1cccs1 | 10 | 15
COc1ccc(-c2csc(=Nc3cccc(OC)c3)n2CCc2cccs2)cc1 | -8 | -14
O=S1(=O)NC(c2ccccc2)(c2ccccc2)c2ccccc21 | 5 | 9
CO[C@H]1CN(Cc2c[nH]c3ccccc23)[C@@H]2Cc3c(n(C)c4ccccc34)[C@H]1C2 | 25 | 23
COCCn1c(SCC(=O)N2CCC(C)CC2)nc2c([nH]c3ccccc32)c1=O | 2 | 2
O=C(NCC1Cc2cc(Oc3ccccc3)ccc2O1)c1cc(Cl)ccc1F (configuration not stated) | 26 | 36
Cc1c(C)n2c3c(=O)[nH]c(=O)n(C)c3nc2n1CCCNc1ccc(F)cc1 | 2 | -3
COCc1nc2cc(-c3cccc(-n4cccn4)c3)ccc2o1 | -4 | -6
Cc1nn(CC(=O)Nc2ccc(C#N)cc2)c(C)c1[N+](=O)[O-] | 6 | 6
CSc1ccccc1C(=O)NCc1c(C)ncc2c1CCN(C(=O)c1snnc1C)C2 | 18 | 8
CC(C)c1cc(CN2CCN(CC3CCCCC3)C(CCO)C2)[nH]n1 (configuration not stated) | -8 | -9
CCCNC(=O)C(C)NC(=O)CCNc1ccc(C(F)(F)F)cc1[N+](=O)[O-] (configuration not stated) | -3 | -2
Cn1c(=O)[nH]c(=O)c2c1nc(NCCCO)n2CCCc1ccccc1 | 11 | 6
COc1cc(CN2CCN(c3nc(-c4ccccc4)nc4c3CCC4)CC2)cc2c1OCO2 | 17&-3 | 7&-7
CCc1ccc(C(=O)Nc2ccc(N3CCCC3)c(C(=O)NCCc3ccccc3)c2)cc1 | 6 | 9
CC1=C(C(=O)OCC(C)C)C(c2ccc([N+](=O)[O-])cc2)NC(=O)N1C (configuration not stated) | 7 | 7
COc1ccc(-c2n[nH]c(C)c2Oc2ccccc2)c(O)c1C | 0 | 2
CCOC(=O)CNc1cccc(C(=O)N2CCCn3cncc3C2)c1 | 9 | 5
CCOC(=O)N1CCN([C@H]2CN(C(=O)c3ccc(OC)cc3)C[C@@H]2O)CC1 | 7 | 3
Cc1nn2cccnc2c1C(=O)NCC1(O)CCCc2ccccc21 (configuration not stated) | 6 | 4
Cc1cc(C)n(C)c(=O)c1C(=O)NCc1ccccc1Cn1cccn1 | 7 | -3
CC(NC(=O)c1ccc(Br)o1)c1ccc(Cl)s1 (configuration not stated) | -3 | -3
CCn1c(SCc2csc(C)n2)nc2sc(C)c(C)c2c1=O | 1 | 1
CN(Cc1ccc(Br)s1)CC1(O)CCCC1 | 8 | 7
CN1CC(=O)N2C[C@@H](NC(=O)c3nc4c(s3)CCCC4)C[C@H]2C1=O | -5 | 10
CCOC(=O)c1c(NC(=O)c2cccs2)sc(CC)c1-c1cccs1 | -5 | -10
Cc1cc2ncn(CCOc3ccccc3)c2cc1C | 0 | 8
CCCCn1ncc(C)c1NC(=O)c1ccsc1 | -3 | -6
COc1cccc(-c2cc(C(=O)O)n(-c3cccc(C)c3)n2)c1 | 11 | 19
O=C(OCC(=O)N1CCCC1=O)c1cccc(S(=O)(=O)Nc2ccc(F)cc2)c1 | -1 | -7
CC(C)(NCCCCC#N)c1ccc(F)cc1 | 18 | 7
CCOCCOc1nc(-c2ccccc2C)n(-c2cccc(NC(=O)c3ccc([N+](=O)[O-])cc3)c2)n1 | 26 | 39
CC(C)=CC(=O)NCC(=O)NCc1ccccc1 | -2 | -4
CCc1c(C)nc(-c2cccc(C)c2)nc1N1CCN(C(=O)Nc2ccccc2F)CC1 | 0 | 9
Cc1ccc(-c2ccc(CCC(=O)NCc3ccncc3)n2-c2ccc(CC#N)cc2)c(C)c1 | 0 | -3

Following part
SMILES | NPYLR7 ag | NPYLR7 ag max-min
COc1ccc(CNC(C)C(=O)NC2CCCC2)c(F)c1F (configuration not stated) | -7 | -9
CNc1nc(N=Nc2ccccc2)nc(OCC(F)(F)F)n1 | 7 | -6
N=C(N)N1CCc2ccccc2C1 | 2&5&1&-10 | 5&-2&-5&-4
O=C(c1cccc(NCc2cccc(F)c2)c1)N1CCC(O)CC1 | 3 | -1
Cc1ccc(OCC2CN(C(=O)C(c3ccccc3)C(C)C)CCO2)cc1 (configuration not stated) | 5 | -1
CC(=O)Oc1c(-c2ccc(NC(=O)c3ccc4c(c3)OCO4)cc2)c(-c2ccccc2F)nn1-c1cccc(F)c1 | -2 | 9
CCc1ccc(C(=O)N2CCC3(CC2)OCC(C(=O)NCc2ccncc2)N3C(=O)c2ccccc2)cc1 (configuration not stated) | 1 | 3
O=C(Cn1ncn2nccc2c1=O)N(CC1CC1)C1CCCCC1 | 1 | -1
Cc1nc(=S)c2ccccc2[nH]1 | -2 | -6
Cc1nn(C)c2ncc(C(=O)Nc3ccc(F)c(NC(=O)C4CC4)c3)cc12 | -3 | -2
Cc1cccc(OCC(=O)Oc2coc(CSc3nc(C)cc(C)n3)cc2=O)c1 | -12 | -9
Cc1cccc(C(=O)N2CCCC(N3CCN(Cc4ccc5c(c4)OCO5)CC3)C2)n1 (configuration not stated) | 1 | 1
Cc1noc(C)c1CN1CCN2C(C(=O)Nc3ccccc3Cl)=COC2=NC1=O | 8 | 8
Cc1ccc(OCC(=O)NCc2ccc(C)nc2)cc1 | -12 | -12
CN(Cc1cccc(Cl)c1)Cn1nc2c(Cl)cc(Cl)cn2c1=S | -4 | -6
Cc1ccccc1-n1ccc2c(cnc3ncnn32)c1=O | 4 | 5
COc1ccc(NC2CCCN(C(=O)c3sccc3NC(C)=O)C2)cc1 (configuration not stated) | -3 | -7
COc1ccc(-c2nc3scc(CCNS(=O)(=O)c4cc(C)ccc4C)n3n2)cc1 | 6 | 5
COc1ccc(OC)c(C2C(=C(O)c3ccccc3)C(=O)C(=O)N2CCN2CCOCC2)c1 (configuration not stated) | -1 | 13
O=C(Cn1nnc2ccccc21)NCC1CCCCC1 | -1 | -2
N#CCCN1N=C(c2ccc(Cl)cc2)OCC1=O | -7 | -8
CN(C)S(=O)(=O)c1ccc(C(=O)NCCn2ncc3c(=O)n(Cc4cccc(F)c4)cnc32)cc1 | -3 | -8
CC(C)Cn1c(SCc2ccc(C(=O)O)cc2)nnc1N1CCOCC1 | 2 | 21
COc1ccccc1C(=O)N1CCC2(CC1)CN(Cc1ncc[nH]1)CCN2C | -6 | -11
Cc1ccc(-c2nnc(SCC(=O)NCCc3ccc(Cl)cc3Cl)n2-c2ccc(Cl)c(Cl)c2)cc1 | 17 | 15
O=C(CN1CN(c2ccccc2)C2(CCN(C(=O)CCC3CCCC3)CC2)C1=O)NC1CC1 | 20 | 26
CCCCN1CCC(CCC(=O)c2cc(Cl)c(N)cc2OC)CC1 | 13 | 13
COc1ccc(-c2nc(N(C)Cc3ccc(C(F)(F)F)cc3)[nH]c(=O)c2C#N)cc1 | 5 | 3
COc1ccc(Br)cc1C=NN1CCN(Cc2cccc3ccccc23)CC1 | -4 | -7
CCc1cccc(CC)c1NC(=O)CN1C(=O)NC(C)(c2ccco2)C1=O (configuration not stated) | 4 | 1
Nc1cc(N)nc(SCCOc2ccc(Cl)cc2)n1 | 5 | 1
O=C(c1cccc(Cl)c1)N1CCN(c2nc(Cc3ccccc3)nc3c2cnn3-c2ccccc2)CC1 | 7 | 6
O=C(Nc1ccc(Br)cc1Cl)NC1CC2CCC1O2 (configuration not stated) | 6 | 3
CC1=[N+](CCO)c2ccccc2C1(C)C | -1 | 19
CC(Cn1cncn1)NCc1noc(-c2c(F)cccc2F)n1 (configuration not stated) | 28 | 14
Cc1ccc(C(=O)N2CCCC2(C)C(=O)O)cc1F (configuration not stated) | -1 | -2
COc1cc(C(=O)N(Cc2cccnc2)c2nc3ccc(F)cc3s2)cc(OC)c1OC | -6 | -6
O=C(Nc1nc(-c2cc([N+](=O)[O-])cs2)cs1)c1ccoc1 | 1 | 0
O=C(NNC(=O)C1CC1)c1ccccc1O | -3 | -5
COc1ccccc1NCC(=O)N1CCOCC1c1ccccc1 (configuration not stated) | 9 | 5
CC(=O)Nn1ccc2c(cnc3nc(-c4cccnc4)nn32)c1=O | 5 | 7
Cn1c(-c2cccc(C(F)(F)F)c2)cc2cnc(Nc3ccccn3)cc21 | -4 | -8
Cc1ccn2c(=O)c(NC(=O)c3ccc(F)cc3)c(C)nc2c1 | 4 | 3
CCOC(=O)c1ncccc1NC(=O)CC(=O)Nc1cccnc1C(=O)OCC | -11 | -12
CC1=CC2=NC(=O)CC(C)(C(=O)O)N2C=C1 (configuration not stated) | -10 | -12
CNC(=O)CSc1nnc2n(C)c3ccccc3n12 | 12 | 9
COc1ccccc1/C=C/C1=NC(=C\c2cccnc2)/C(=O)O1 | -4 | -9
